From PubChem BioAssay
KCNQ2 enhance: potentiators of rat KCNQ2 potassium channel | CHO-K1 KCNQ2, FluxOR thallium flux fluorescence; stronger effect = higher value | B-score at 10 µM | 0.54% of 310,000 active | AID 2239, 2010;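 active means fluorescence ratio B-score at least 3 SD of library B-scores, with initial fluorescence B-score within 3 SD, cut at about 5.3 in these data; same plate scores as AID 2156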;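 further: B-score of peak minus minimum over baseline fluorescence ratio after K+ and Tl+ stimulus; positive B-score means potentiation of KCNQ2 with more thallium influx and brighter signal; only the inactives scoring about 0 or higher are listed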
Target sequence (O88943 whole entry, looked up): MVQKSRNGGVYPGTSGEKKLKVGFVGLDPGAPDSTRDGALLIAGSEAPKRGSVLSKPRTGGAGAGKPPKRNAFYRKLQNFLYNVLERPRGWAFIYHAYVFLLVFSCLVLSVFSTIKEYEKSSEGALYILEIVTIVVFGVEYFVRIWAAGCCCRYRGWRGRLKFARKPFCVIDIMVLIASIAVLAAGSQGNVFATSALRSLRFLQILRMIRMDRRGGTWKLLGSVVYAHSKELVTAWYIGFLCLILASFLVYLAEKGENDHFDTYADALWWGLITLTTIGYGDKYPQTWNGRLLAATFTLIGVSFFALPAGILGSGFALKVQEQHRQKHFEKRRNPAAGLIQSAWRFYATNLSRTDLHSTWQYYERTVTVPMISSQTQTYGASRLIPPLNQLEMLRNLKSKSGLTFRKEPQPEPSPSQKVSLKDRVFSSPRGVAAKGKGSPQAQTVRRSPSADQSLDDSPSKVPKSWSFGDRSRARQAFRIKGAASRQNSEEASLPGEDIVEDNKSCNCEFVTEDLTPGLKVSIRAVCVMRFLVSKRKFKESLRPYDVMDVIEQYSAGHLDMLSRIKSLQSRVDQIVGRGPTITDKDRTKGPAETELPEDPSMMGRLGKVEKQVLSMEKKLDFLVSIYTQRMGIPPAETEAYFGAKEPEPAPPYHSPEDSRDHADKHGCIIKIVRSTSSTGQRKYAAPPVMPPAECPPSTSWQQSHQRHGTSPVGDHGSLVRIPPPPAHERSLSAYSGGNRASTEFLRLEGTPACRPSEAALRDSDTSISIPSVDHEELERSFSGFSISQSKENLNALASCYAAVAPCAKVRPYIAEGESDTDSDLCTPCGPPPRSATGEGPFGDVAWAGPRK
KCNQ2 enhance baseline: recorded beside KCNQ2 enhance, whose call it bears; B-score; compound at 10 µM; measured here: initial fluorescence intensity artifact check;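 brightness before thallium and not channel activity; 0 = typical well and far values either way flag optical interference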
* = called active by the depositor.

KCNQ2 enhance,KCNQ2 enhance baseline,compound
0.01,-1.29,CCOc1ccc(Cc2nc(C)c(CC(=O)N3CCOCC3)c(=O)[nH]2)cc1
3.8,0.94,CCOc1ccc(/C=C2\SC(=S)NC2=O)cc1OC
0.5,-0.84,COC(=O)C(Cc1ccccc1)NC(=O)CC(C)CC(=O)Nc1ccc(OC)cc1OC (configuration not stated)
0.83,0.74,CCc1cccc(CC)c1NC(=O)C1CCN(C(=O)c2ccco2)CC1
0.32,0.04,Cc1nc2ccccc2c2oc(C(=O)NCC3CCCO3)cc12 (configuration not stated)
2.33,-1.06,CCNS(=O)(=O)c1ccc(NC(=O)CC(C)c2ccccc2)cc1 (configuration not stated)
1.04,-1.51,CC(=O)Nc1ccc(Sc2ccccc2C(=O)Nc2ccc(F)cc2)cn1
1.36,-1.37,Cc1ccccc1NS(=O)(=O)c1cc(S(C)(=O)=O)ccc1C
0.24,0.57,CCCCCCC(=O)Oc1cccc(N2C(=O)C3CCCCC3C2=O)c1 (configuration not stated)
0.34,-0.57,CCOc1c2ccc(C(=O)NCc3ccc4c(c3)OCO4)cc2nn1CCOC
0.4,1.06,Cc1cccc(C(=O)N2CCN(Cc3nc4sc5c(c4c(=O)[nH]3)CCCC5)CC2)c1
0.65,-2.21,O=C(CSc1nc(-c2ccccc2)cs1)N1CCN(C(=O)c2ccco2)CC1
1.58,1.5,CCOC(=O)c1cnc2c(-c3ccccc3)cnn2c1C
1.01,-0.02,CCc1ccc(N2C(=O)CC(N3CCN(Cc4ccc5c(c4)OCO5)CC3)C2=O)cc1 (configuration not stated)
0.47,-0.21,CCCCN=C1NN=C(c2ccc(C)c(C)c2)CS1
0.86,-0.07,COc1ccc(/C(C)=N/NC(=O)CNC(=O)/C=C\c2ccccc2)c(OC)c1
0.08,-2.29,CCOc1ccc(C2c3c(oc4cc(C)c(C)cc4c3=O)C(=O)N2CCCN2CCOCC2)cc1 (configuration not stated)
0.91,1.31,O=C(Nc1ccc(-c2csc(Nc3ccccc3)n2)cc1)c1cccc(C(F)(F)F)c1
0.27,0.1,CC(C)(C)n1nnnc1SCC(=O)Nc1nn(-c2ccccc2)nc1C(N)=O
0.04,-0.12,CN(C)c1ccc(C(C(=O)NCC2CCCO2)N(C(=O)c2snc(C(N)=O)c2N)c2ccc3c(c2)OCO3)cc1 (configuration not stated)
0.57,2.06,COc1ccc(C(=O)NCCS(=O)(=O)N(C)Cc2ccccc2)cc1
1.52,-0.17,Cc1ccc(S(=O)(=O)N(CC(=O)Nc2ccc(Cl)cc2)C(=O)N2CCN(C)CC2)cc1
1.63,-2.7,CCC(=O)Nc1ccc2c(c1)nc(CCN1CCN(C)CC1)n2C
0.47,-2.03,O=S(=O)(c1cc(Cl)c(Cl)cc1Cl)N1CCN2CCCC2C1 (configuration not stated)
1.23,-0.62,CN(CC(=O)Nc1ccccc1C(F)(F)F)C(=O)CSc1nnnn1C
0.38,1,CCN(CC)c1ccc(/C=C2\NC(=O)NC2=O)cc1
1.63,0.68,CS(=O)(=O)N(CC(=O)N1CCOCC1)c1cc(C(F)(F)F)ccc1Cl
0.15,-0.02,COc1ccc(NC(=O)CN2C(=O)COc3ccc(C)cc32)c(OC)c1
0.18,1.22,Cc1ccc2c(c1)N(CCC(=O)NCCCN1CCCC1)C(=O)CO2
0.06,-0.01,CCOc1cc(C)c(S(=O)(=O)NC2CC(C)(C)NC(C)(C)C2)cc1C
1.32,-1.4,CCCS(=O)(=O)N1CCN(C(=O)COc2ccccc2)CC1
1.14,1.71,COc1ccc(CC(=O)OCc2nnc(-c3ccccc3)o2)cc1
1.09,-0.29,Cc1cc(NS(=O)(=O)c2ccc(NC(=O)c3c(F)c(F)c(F)c(F)c3F)cc2)nc(C)n1
1.52,0.02,O=C(CN1C(=O)NC2(CCCC2)C1=O)N1CCN(C(=O)c2ccco2)CC1
1.14,-0.37,Cc1cc(C(=O)NC(C)CCc2ccccc2)ccc1[N+](=O)[O-] (configuration not stated)
3.36,-0.37,Cc1cc(C(=O)N2CCCC(CCC(=O)N3CCN(c4ccccn4)CC3)C2)c(C)o1 (configuration not stated)
0.54,-1,CCN(CC)CCCNC(CC(=O)Nc1cccc([N+](=O)[O-])c1)C(=O)O (configuration not stated)
3.03,-1.45,Cc1cc(C)nc(NC(N)=NC(C)c2ccccc2)n1 (configuration not stated)
0.65,-0.5,CC(=O)Nc1ccc(S(=O)(=O)NCc2ccc(C(=O)NC(C)c3ccccc3)cc2)cc1 (configuration not stated)
1.33,-0.82,COc1ccc(Cl)cc1-c1n[nH]c(=S)o1
0.9,0,CCC1CN(C(=O)N2CCC(C(=O)NCc3cccc(F)c3)CC2)c2ccccc2O1 (configuration not stated)
0.11,0.43,CC(C(=O)Nc1cccc([N+](=O)[O-])c1)N1CCN(C/C=C/c2ccccc2)CC1 (configuration not stated)
0.04,-0.25,CC(=O)Nc1ccc(NC(=O)c2c(-c3ccccc3Cl)noc2C)c(C)c1
1.53,-1.83,COc1ccc(NC(=O)c2ccccc2NS(=O)(=O)c2ccc(C)cc2)c([N+](=O)[O-])c1
0.13,0.12,Cc1cc2oc(=O)cc(CN3CCN(Cc4ccc5c(c4)OCO5)CC3)c2cc1C
2.03,-0.63,O=C(c1ccccc1)N1CCN(S(=O)(=O)c2ccccc2)CC1
0.32,-1.16,Cc1nnc(NC(=O)c2cc(-c3ccco3)nc3ccccc23)s1
0.37,1.29,CSc1nc(C)cc(-n2ccc(=O)[nH]c2=O)n1
1.06,0.37,Cc1cccc(C)c1N1CCN(C(=O)N2CCCCC2)CC1
0.59,-2.01,COc1ccc(Cc2nn3c(-c4ccccc4OC)nnc3s2)cc1

Going on with the list.
KCNQ2 enhance,KCNQ2 enhance baseline,compound
0.5,-1.27,Cc1cc(C(=O)COC(=O)c2ccc[nH]c2=O)c(C)n1-c1ccc(F)cc1
0.65,0.16,CNc1cc(N2CCCC2)ccc1[N+](=O)[O-]
1.19,0.89,C#CCNC(=O)C1=C[C@H](c2coc3ccccc3c2=O)[C@@H](CCCO)[C@H](OCC)O1
0.03,-0.81,O=C(NNC(=O)C12CC3CC(CC(C3)C1)C2)c1cnccn1
0.14,-1.65,CCCCNC(=S)NNC(=O)c1cc(-c2cccnc2)nc2ccccc12
0.62,-0.4,N#CC(=NCc1cccnc1)C1=C(O)c2ccccc2C1=O
0.19,-1.07,COc1ccc([N+](=O)[O-])cc1NC(=O)COC(C)=O
0.14,-2.16,COc1ccc2c(c1OC)C(=O)N1N=C(c3ccc(Br)cc3)CC21 (configuration not stated)
0.7,1.46,C=CCNC(=O)COc1ccc(S(=O)(=O)Nc2ccc(OCC)cc2)cc1
1.76,0.18,COc1cc(OC)c2c(C)c(Cl)c(=O)oc2c1

Filtered by structure: the entries above with two or more sulfur atoms (3)
KCNQ2 enhance,KCNQ2 enhance baseline,compound
3.8,0.94,CCOc1ccc(/C=C2\SC(=S)NC2=O)cc1OC
1.36,-1.37,Cc1ccccc1NS(=O)(=O)c1cc(S(C)(=O)=O)ccc1C
0.65,-2.21,O=C(CSc1nc(-c2ccccc2)cs1)N1CCN(C(=O)c2ccco2)CC1

Molecules from the list above that contain a furan ring, fused or not:
KCNQ2 enhance,KCNQ2 enhance baseline,compound
0.83,0.74,CCc1cccc(CC)c1NC(=O)C1CCN(C(=O)c2ccco2)CC1
0.32,0.04,Cc1nc2ccccc2c2oc(C(=O)NCC3CCCO3)cc12 (configuration not stated)
0.65,-2.21,O=C(CSc1nc(-c2ccccc2)cs1)N1CCN(C(=O)c2ccco2)CC1
1.52,0.02,O=C(CN1C(=O)NC2(CCCC2)C1=O)N1CCN(C(=O)c2ccco2)CC1
3.36,-0.37,Cc1cc(C(=O)N2CCCC(CCC(=O)N3CCN(c4ccccn4)CC3)C2)c(C)o1 (configuration not stated)
0.32,-1.16,Cc1nnc(NC(=O)c2cc(-c3ccco3)nc3ccccc23)s1

New compounds follow.
KCNQ2 enhance,KCNQ2 enhance baseline,compound
0.99,0.15,Cc1ccc2c(c1)N(CCCC(=O)NCCCN1CCCCC1)C(=O)CO2
0.15,-0.27,COc1cc2c(cc1OC)CN(C(=O)c1cc(S(=O)(=O)N3CCOCC3)c(Cl)cc1Cl)CC2
2.5,-0.24,CCn1ccc(C(=O)NCc2ccc3c(c2)OCO3)n1
0.61,0.73,Cc1onc(-c2c(F)cccc2Cl)c1C(=O)c1ccccc1
0.59,0.94,COC(=O)c1ccc(CC(=O)c2nc3ccccc3s2)cc1
0.35,-2.49,CC(C)CCN1CC(C(=O)NCCC2=CCCCC2)CC1=O (configuration not stated)
2.49,-0.01,FC(F)(F)c1ccc2c3n(nc2c1)CCN=C3c1ccc(Cl)cc1
0.71,0.04,CCn1cc(C(=O)Nc2cccc(C)c2)c(=O)c2ccc(C)nc21
0.28,0.72,Cc1cc(NC(=O)Nc2cc(F)ccc2C)n(C)n1
1.34,0.03,CCOC(=O)N1CCN(c2nc(-c3ccc(F)cc3)cs2)CC1
0.9,0,CCN(CC)C(=O)Cn1nnc(-c2ccc(C)o2)n1
1.09,-1.02,COc1ccc(CNC(=O)c2ccncc2)cc1
0.78,0.41,O=C(Nc1ccccc1N1CCOCC1)c1ccc([N+](=O)[O-])cc1
0.94,-1.94,Cc1ccccc1NC(C)C(=O)N/N=C/c1c[nH]c2ccccc12 (configuration not stated)
0.24,0.45,O=S(=O)(NC1CCCCC1N1CCN(c2ccc(F)cc2)CC1)c1ccc(Cl)cc1 (configuration not stated)
0.12,-1.27,O=C1OCc2cc(NC(=O)C34CC5CC(CC(C5)C3)C4)ccc21
1.22,0.31,Cc1ccc(/C(O)=C2\C(=O)C(=O)N(c3cc(C)on3)C2c2cccc(Br)c2)cc1 (configuration not stated)
0.24,1.72,C/C(=N\NC(=O)c1cccc(S(=O)(=O)Nc2ccccc2Cl)c1)c1ccco1
0.12,1.32,C=CCNC(=O)COC(=O)c1ccc(Cl)c(S(N)(=O)=O)c1
0.02,0.38,O=C(c1cccc(S(=O)(=O)N2CCN(c3ccc(F)cc3)CC2)c1)N1CCCC(C(F)(F)F)C1 (configuration not stated)
0.04,0.19,COc1ccc(CNc2nccs2)cc1OC
0.08,-0.86,NS(=O)(=O)c1ccc(NS(=O)(=O)c2ccc(NC(=O)c3ccc(-c4ccccc4)cc3)cc2)cc1
0.57,-0.65,Fc1ccccc1Cc1ccc(Cl)nn1
0.53,1.29,CC1(C)Cc2ccccc2-c2[nH]c(=S)[nH]c(=O)c21
0.04,-1.93,CCc1ccc(-c2cc(C)no2)cc1S(=O)(=O)Nc1ccccn1
1.28,-0.26,Cc1cc(C)n(-c2c(F)c(F)c(CO)c(F)c2F)n1
0.21,-1.24,Cc1ccc(S(=O)(=O)NCC(=O)NCc2cc(=O)n(C)c(=O)n2C)cc1
0.75,1.08,Cc1ccc(-c2nonc2NC(=O)c2ccco2)cc1
0.45,-1.32,Cc1cccc(NC(=O)CSc2nnc(CNC(=O)c3ccc(S(=O)(=O)N(C)C)cc3)n2-c2cccc(C)c2)c1
0.64,0.09,COc1cccc(-n2nc(-c3ccnn3-c3ccc(C)cc3)c(=O)n(C)c2=O)c1
1.28,-3.1,COc1ccc(OCCC(=O)Nc2cc(C)on2)cc1
0.07,-2.01,Cc1[nH]c2ccccc2c1C(=O)COC(=O)c1c(-c2c(F)cccc2Cl)noc1C
0.04,-0.14,CCCCNC(=O)c1onc(CSc2ccccn2)c1C(=O)NCCCC
0.45,0.11,CCOC(=O)N1CCC(NC(=O)c2cc(COc3c(C)cccc3C)on2)CC1
0.59,-0.35,CCN1CCN(CC(=O)c2ccc(OC)cc2)CC1
1.02,1.29,COc1ccccc1Oc1c(C)oc2c(CN3CCN(C)CC3)c(O)ccc2c1=O
0.51,0.68,COc1ccc(C(=O)NCCNC(=O)c2ccc(C)nc2)cc1
1.66,1.21,O=S(=O)(c1cccc(-c2cn3cccnc3n2)c1)N1CCCCCC1
0.09,1.47,c1ccc2c(-c3c[nH]c4ccccc34)c3ccccc3nc2c1
0.65,1.28,C#CCOCCOCCOCCNc1nc(N2CCN(C(=O)C([C@@H](C)CC)n3cc(C(N)COC(=O)C(F)(F)F)nn3)CC2)nc(N2CCN(C(=O)C([C@@H](C)CC)n3cc(C(N)CC(C)C)nn3)CC2)n1 (some centres not stated)

Reprinted at random: four entries already listed, in no set order.
KCNQ2 enhance,KCNQ2 enhance baseline,compound
0.32,-1.16,Cc1nnc(NC(=O)c2cc(-c3ccco3)nc3ccccc23)s1
0.64,0.09,COc1cccc(-n2nc(-c3ccnn3-c3ccc(C)cc3)c(=O)n(C)c2=O)c1
0.65,0.16,CNc1cc(N2CCCC2)ccc1[N+](=O)[O-]
0.19,-1.07,COc1ccc([N+](=O)[O-])cc1NC(=O)COC(C)=O

The results go on.
KCNQ2 enhance,KCNQ2 enhance baseline,compound
0.01,0.28,COc1ccc(N(CC(=O)NCCc2ccc(C)cc2)S(=O)(=O)c2c(C)noc2C)cc1
0.51,-1.38,CCN(CC)C(=O)COc1ccc2c3c(c(=O)oc2c1)CCCC3
0.95,1.43,CCc1ccc(/C=N/NC(=O)c2nnn(-c3nonc3N)c2CN2CCOCC2)cc1
0.91,-0.98,Nc1c2c(nc3ccccc13)CCCC2
1.35,0.08,COc1ccccc1NCCC(=O)OCC(=O)NC1CC1
0.68,-2.88,COc1cc(/C=C/C(=O)Nc2ccc(C)cc2)cc(OC)c1OC

Some of the compounds tested. The share of hits here may be higher or lower than overall.
